Screening results as filed in PubChem.
T cruzi repl: T. cruzi replication inhibition. T. cruzi beta-gal in NIH3T3, luminescence, 90 h. inhibition, % (test concentration not listed). actives 1.4% (n = 300,000). AID 1885;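 active = mean inhibition across valid replicates above about 55%, limit read from the data; inconclusive = mean below that limit but half or more replicates reach it; inactive = mean below it, under half of replicates reach it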;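 also: signal also drops with host cell toxicity which is not excluded here; 0% = plate median of DMSO wells and 100% = zero luminescence signal; higher percent means less beta-gal luminescence so fewer parasites; stock transfer was 50 nL into about 50 µL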
Calb FLC: C. albicans growth modulation with fluconazole | C. albicans CaCi-2 (fluconazole-resistant clinical isolate) + fluconazole, Alamar Blue growth, 48 h | growth inhibition, % (concentration not given with the values) | actives 0.57% (n = 300,000) | AID 1979;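 active = most replicates above 75%; inconclusive = exactly half above 75%; inactive = most below 75%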;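 also: all wells also contain fluconazole at 8 µg/ml as a sub-toxic cotreatment; 0% = median of DMSO wells and 100% = median of geldanamycin control wells; wells of about 8 µL received 7.5 nL stock; the first replicate is given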
Vif A3G: HIV-1 Vif–A3G interaction blockers – biochemical, TR-FRET, GST-Vif 1-94, biotin-A3G peptide, dose response retest, primary screen (AID 1117319). one-dose inhibition, %; IC50 in µM for titrated hits. actives 0.57% (n = 260,000). TR-FRET GST-Vif / biotin-A3G peptide binding; higher % means a stronger effect; test concentration not given here; strong numbers were not always called active;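 active = above the screen mean plus three standard deviations and confirmed in dose response; inconclusive = results disagree or hit not tested in dose response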;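 also: Vif residues 1-94 fused to GST binding biotinylated APOBEC3G peptide 110-148; 0% = full assay without inhibitor and 100% = GST in place of GST-Vif; retest series ran down from 100 µM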
Bfl-1 A1 inh: inhibitors of the anti-apoptotic protein A1, read as caspase activation | MEF A1-2A-BIM cells, Caspase-Glo 3/7 luminescence, 3 h; percent of clofoctol response, vehicle zero | AID 2462 | caspase activation, % (no concentration beside the values) | actives 0.066% (n = 330,000);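 active = over half of replicate activation scores above 10%, or exactly half above 10 with the replicate mean above 10; inconclusive = replicate mean below 10 yet half the replicates above 10; inactive = over half of replicates below 10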;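 also: wells of about 30 µL received 50 nL stock; many hits fall short of the cut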
Beta apoptosis: blocks beta cell apoptosis; actives 0.8% (n = 300,000); AID 435005; INS-1E cytokine-induced death, ATP luminescence, 48 h; percent of positive-control rescue, neutral wells zero; protection from apoptosis, % (test concentration not listed);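 active = all replicates at 75% or more, or half of them and the mean; inconclusive = half reach 75% but not the mean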;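 also: 0% = cytokine-treated negative control wells and 100% = positive control rescue; higher means more ATP so stronger rescue from cytokine killing; wells of about 40 µL received 100 nL stock; the first replicate is given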
Ecoli rRNA inh: inhibitors of bacterial rRNA selective over humanized ribosomes; E. coli WT GFP vs humanized-ribosome RFP mutants, fluorescence, 24 h; stronger effect = lower value; DMSO median 0, no signal -100; GFP signal change (wild-type ribosome), % (concentration not given with the values); actives 1.6% (n = 350,000); AID 720706;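 active = significant combined selectivity score with lowered wild-type GFP, culture density cut under 30%, mutant RFP and density less affected; inactive = any of these conditions unmet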; also: one replicate is shown; some compounds called inactive have numbers as strong as hits
AF4-AF9 inh: MLL-AF4/AF9 protein interaction inhibition; inhibition, % at 10 µM; P42568; actives 0.47% (n = 350,000); AlphaScreen, biotin-AF4 peptide binding to FLAG-AF9;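 active = every replicate reaching a set inhibition limit, whatever the replicate mean, cut at about 25% in these data; inconclusive = mean inhibition reaches that limit but some replicates miss it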;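 also: 0% = plate neutral control median and 100% = total signal loss; the record names both 10 and 1 µM as test concentration; the first replicate is given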
Target sequence (P42568 whole entry, looked up): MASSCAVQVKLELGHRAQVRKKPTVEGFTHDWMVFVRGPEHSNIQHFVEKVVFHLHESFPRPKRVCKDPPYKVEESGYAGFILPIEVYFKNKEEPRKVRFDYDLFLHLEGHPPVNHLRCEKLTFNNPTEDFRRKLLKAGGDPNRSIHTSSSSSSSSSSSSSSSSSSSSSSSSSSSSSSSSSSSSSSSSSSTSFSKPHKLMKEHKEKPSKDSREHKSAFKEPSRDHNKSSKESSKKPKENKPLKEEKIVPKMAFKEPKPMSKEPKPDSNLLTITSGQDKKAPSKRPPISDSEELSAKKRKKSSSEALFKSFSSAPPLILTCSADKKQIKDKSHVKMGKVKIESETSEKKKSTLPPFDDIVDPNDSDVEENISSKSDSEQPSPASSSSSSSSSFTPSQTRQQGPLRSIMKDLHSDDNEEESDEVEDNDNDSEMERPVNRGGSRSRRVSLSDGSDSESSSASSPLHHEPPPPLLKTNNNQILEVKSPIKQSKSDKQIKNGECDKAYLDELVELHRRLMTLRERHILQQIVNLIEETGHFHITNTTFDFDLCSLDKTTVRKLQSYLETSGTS
RanGTP-Impb inh: inhibitors of RanGTP-importin-beta interaction, primary screen, biochemical, FRET, CFP-Ran, YFP-importin-beta, homogeneous; cell-free CFP-Ran/YFP-importin-beta FRET ratio; inhibition, % (test concentration not listed); actives 1.1% (n = 300,000);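 active = most replicates above 15%; inconclusive = exactly half above 15%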;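 also: 0% = DMSO wells and 100% = Ran loaded with GDP instead of GTP; wells of about 40 µL received 100 nL stock; the first replicate is given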
Ecoli rRNA inh OD600: second read-out of Ecoli rRNA inh, no call of its own (marks repeat the call); OD600 change, %; measured here: OD600 growth;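 optical density of the mix in the first replicate; 0 = DMSO median and -100 = no signal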
Ecoli rRNA inh RFP: recorded beside Ecoli rRNA inh, whose call it bears; RFP signal change, %; measured here: RFP humanized mutant strains;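 first replicate; 0 = DMSO median and -100 = no signal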
The depositor's hits bear a star; ? = inconclusive; . = not tested or not shown. A portion of the library, so the mix of outcomes need not match the whole.

Values run as follows: Beta apoptosis	RanGTP-Impb inh	Ecoli rRNA inh OD600	Bfl-1 A1 inh	T cruzi repl	Vif A3G	Ecoli rRNA inh RFP	Calb FLC	Ecoli rRNA inh	AF4-AF9 inh
COCCn1nnnc1CN1CCOCC1
→ -6	-2.5	-5	-0.5	0	3%	-5.6	-3	4	-11
Cc1cccnc1NC(=S)NC(=O)c1cncc(Br)c1
→ -7	-2.4	12	-0.1	-8	-7%	3.0	-4	29	-1.9
Cc1cccc(C(CC(=O)N2CCCC2)c2ccccc2)c1O (stereo unspecified)
→ -6	2.5	.	-0.5	-10	6%	.	-3	.	.
COc1ccc(/C=N/NC(=S)Nc2ccccc2)cc1COc1ccc(F)cc1
→ 9	-2.3	.	-1.1	3	1%	.	-20	.	.
Cc1ccc(/C=N/NC(=O)Cc2c(F)cccc2Cl)s1
→ -6	7.0	3	0.3	-13	.	0.0	-1	1	0.0
O=C(O)c1ccc(NC2=C(N3CCOCC3)C(=O)c3ccccc3C2=O)cc1
→ 0	0.0	.	-0.5	-8	.	.	17	.	.
COc1cccc(NC(=O)CCC2CCN(C(=O)c3cccc(NC(C)=O)c3)CC2)c1
→ -2	0.3	-4	0.5	-4	0%	0.1	3	-2	-0.9
CC(C)Cc1nc(SCC(=O)NCc2ccccc2)n[nH]1
→ -3	?	.	0.0	-2	4%	.	1	.	.
CCN(CC(=O)Nc1cccc(F)c1)CC(=O)Nc1ccccc1OC
→ 0	0.7	5	0.4	-3	-1%	1.5	-11	6	1.5
Cc1ccc(S(=O)(=O)N2CCOC23CCN(C(=O)C(=O)NCCC(C)C)CC3)cc1
→ -3	-1.3	-6	0.3	-4	-3%	-1.6	1	-2	?
c1cncc(CNc2ncnc3ccc(-c4ccc5c(c4)OCCO5)cc23)c1
→ 0	.	-2	0.2	.	.	3.5	.	-7	-1.1
COc1ccc(C2N(c3cc(Cl)ccc3OC)C(=O)C3CCCN32)c(OC)c1 (stereo unspecified)
→ 5	2.7	10	0.2	4	8%	2.1	12	4	-1.8
CC1CCC2(CC1)NC(=O)N(CC(=O)N1CCN(c3ccccc3)CC1)C2=O (stereo unspecified)
→ -7	.	10	-1.1	.	-6%	-0.7	.	14	-3.6
COc1ccc(C(=O)CSc2ncn[nH]2)cc1OC
→ -1	1.2	.	0.1	-7	0%	.	-1	.	.
O=C(COc1ccccc1)NCC(=O)N/N=C/c1cc(Br)ccc1OCc1ccccc1
→ 3	.	-4	-0.5	8	.	1.7	.	2	1.4
O=C(OCCN1C(=O)c2ccccc2C1=O)c1cccc(OC(F)F)c1
→ 1	9.1	.	0.6	-10	4%	.	7	.	.
CNC(=S)N/N=C/c1ccccc1Cl
→ 3	5.4	.	-3.9	29	-6%	.	2	.	.
COc1ccc(C(CNC(=O)c2ccc(OCc3c(C)noc3C)cc2)N2CCCC2)cc1 (stereo unspecified)
→ 5	.	-6	1.1	.	.	0.1	.	1	0.3
O=C(Sc1nnnn1C1CCCCC1)c1cccs1
→ -3	-2.8	.	0.1	-21	4%	.	19	.	.
COC(=O)c1cn(C(=O)c2ccc(OC)c(OC)c2)c2ccccc12
→ 5	-2.9	-9	0.4	7	.	-1.6	-3	-18	-5.4
COc1ccc(-c2ccc(=O)n(CC(=O)Nc3cccc(O)c3)n2)cc1OC
→ -11	.	.	0.8	3	-3%	.	111*	.	.
CCOCCn1c2ccccc2c2nc3ccccc3nc21
→ -4	0.7	-8	-1.0	4	-1%	0.7	8	-8	-0.8
CN1C/C(=C\c2ccc(N3CCOCC3)cc2)C(=O)/C(=C/c2ccc(N3CCOCC3)cc2)C1
→ -7	-7.1	.	-0.2	-18	26%	.	10	.	.
CC(NC(=O)Cn1cnnn1)c1cccc(C(F)(F)F)c1 (stereo unspecified)
→ -2	3.3	3	0.7	-12	.	-1.2	-2	4	-3.6
Cc1c(CCC(=O)NCCC(=O)O)c(=O)oc2cc3occ(-c4ccccc4)c3cc12
→ 1	1.7	-23	0.2	5	3%	-5.1	-3	-20	-1.5
CC(C)C[C@H](NC(=O)c1nc[nH]c1C(=O)N[C@@H](CC(C)C)C(=O)OC(C)(C)C)C(=O)OCc1ccccc1
→ ?	4.5	.	0.3	52	.	.	14	.	-3.5
COC(=O)c1cccc(S(=O)(=O)N2CCC(n3nnc4cc(F)ccc43)CC2)c1
→ -4	2.5	.	-0.2	12	3%	.	-3	.	.
COc1cccc(CN(C)CC(=O)NCc2ccc(F)cc2)c1OC
→ .	7.3	-2	1.0	-1	-1%	-0.9	-7	2	-0.5
O=S(=O)(Nc1ccc(N2CCCCC2)cc1)c1ccc(F)cc1
→ 27	2.1	-24*	0.4	25	11%	2.4*	15	-36*	9.5
CCCCn1c(CN2CCN(C(=O)c3ccco3)CC2)nc2c1c(=O)n(C)c(=O)n2C
→ 7	5.0	0	.	-8	-1%	2.7	-7	-1	-4.1
O=c1c2[nH]c3ccc(F)cc3c2ncn1CCCn1ccnc1
→ 1	11	.	-0.4	0	-2%	.	25	.	.
COc1cccc(NC(=O)c2cccnc2)c1
→ -3	2.5	.	0.5	-5	-2%	.	-3	.	.
CC(C)CNc1nc(S(=O)(=O)c2ccccc2)c(Cl)s1
→ -2	5.4	-17*	-0.4	35	.	-13*	-10	-40*	2.8
CCn1c(SCc2nc3ccccc3c(=O)[nH]2)nnc1C(C)NC(=O)c1ccccc1F (stereo unspecified)
→ -3	0.8	4	-0.6	4	4%	1.1	4	5	-6.5
Cc1cc(C)cc(C(=O)N2CC(C)SC2=Nc2cccc(S(=O)(=O)N(C)C)c2)c1 (stereo unspecified)
→ 2	?	0	0.5	18	10%	-8.4	-1	0	-4.0
CC(=O)c1ccc(NC(=O)C[n+]2cccc(C)c2)cc1
→ -3	-2.6	-2	-0.5	-12	.	0.2	-3	-9	-0.8
Cc1occc1C(=O)O/N=C(\N)c1ccc(Cl)cc1
→ .	-0.7	13	-2.4	10	.	-0.3	-1	19	-0.4
COc1ccc(Nc2ncnc3c2cnn3Cc2ccc(C)cc2)cc1
→ 0	-3.0	.	-1.9	6	11%	.	1	.	.
COc1ccc(S(=O)(=O)N(Cc2ccccc2)c2ccccc2C(=O)N2CCOCC2)cc1
→ -6	-0.3	0	-0.4	-10	.	-5.8	-3	1	2.8
O=C(NC(Cc1ccc(F)cc1)C(=O)O)c1ccccc1 (stereo unspecified)
→ 1	0.2	.	-0.6	4	2%	.	4	.	.
CCc1ccc(CC)c(S(=O)(=O)Nc2ccc(O)c(C(=O)O)c2)c1
→ -4	-4.2	.	?	-1	?	.	9	.	.
O=C1S/C(=C\C=C\c2ccco2)C(=O)N1c1ccc(O)cc1
→ 2	-3.5	.	1.3	11	0.69µM*	.	0	.	18
CCOC(=O)N1CCC(C(=O)NNC(=O)c2ccc(Cl)cc2Cl)CC1
→ -2	2.8	13	-0.5	-8	.	1.0	-3	7	-4.0
CCOC(=O)CC(=O)CSc1nc2c(cc1C#N)CCCCC2
→ 0	6.9	.	-2.0	-4	0%	.	7	.	.
COc1cc(NC(=O)C2CC(=O)N(CCc3ccccc3)C2)cc(OC)c1 (stereo unspecified)
→ 0	0.9	-3	0.6	-9	-5%	0.7	-3	-1	3.6
CC(C)(C)c1ccccc1OCC(O)CN1CCN(c2ccccn2)CC1 (stereo unspecified)
→ -3	-0.9	-74	-0.3	4	.	-14	-21	-46	5.7
Cc1cc(Cl)ccc1OCC(=O)N/N=C1\CCCc2ccccc21
→ -12	4.6	.	1.0	16	4%	.	6	.	.
COc1cc(C=NCC2OCCc3ccccc32)cc(OC)c1 (stereo unspecified)
→ -3	-2.8	7	0.2	29	-9%	2.0	0	-1	4.9
COc1nnc(-c2ccc(N3CCOCC3)c(NC(=O)c3ccco3)c2)c2ccccc12
→ 3	3.1	.	1.0	19	-10%	.	-4	.	.
COc1ccc(NC(=O)Cc2ccccc2F)cn1
→ -2	4.4	18	-0.3	-8	.	0.1	0	10	-0.8
Cc1ccc(NC(=O)[C@@H]2CCCN2S(=O)(=O)c2ccccc2F)cc1
→ 0	0.3	-3	0.4	-15	.	-7.2	-3	-6	-38
CCc1cnccc1CCC(=O)Nc1ccccc1C
→ -7	-1.4	12	0.6	-2	.	-6.0	-7	13	.
O=[N+]([O-])c1cccc(S(=O)(=O)N2CCCCC2)c1
→ -2	-1.2	9	0.0	6	0%	3.7	-12	12	2.5
CCc1nc2cccnc2n1-c1ccc(CC(=O)NC(C)CC)cc1 (stereo unspecified)
→ -6	-4.2	-6	-0.2	-19	-8%	3.4	6	0	1.4
COCCNC(=O)c1ccc2c3n(nc2c1)-c1ccc(C)cc1CO3
→ 14	-0.4	-12	-1.4	-4	16%	-16	-5	-19	-5.5
O=C(NC1CCCC1)C(c1cccnc1)N(C(=O)c1csnn1)c1ccccc1Cl (stereo unspecified)
→ -8	-2.1	2	-0.4	-30	.	5.6	-3	8	-2.2
CCc1ccc(Nc2cc(C(=O)NCCCN3CCOCC3)c3ccccc3n2)cc1
→ -1	-3.5	-16	0.1	-11	-4%	0.8	-5	2	-5.6
Oc1[nH]c2ccccc2c1N=Nc1c(F)c(F)c(C(F)(F)F)c(F)c1F
→ 5	-1.9	-3	-2.2	7	0%	-0.2	-1	1	-1.1
CC(=O)N1CCN(CCN=CC2=C(O)CC(c3ccc(Cl)cc3)CC2=O)CC1 (stereo unspecified)
→ -3	-0.3	.	1.8	3	1%	.	3	.	.
Cc1ccc(C2C3=C(CC(C)(C)CC3=O)Nc3onc(C)c32)cc1 (stereo unspecified)
→ -11	-3.5	.	-0.4	6	-1%	.	-11	.	.

Part of the list above, in CSV form:
Structure,Beta apoptosis,RanGTP-Impb inh,Ecoli rRNA inh OD600,Bfl-1 A1 inh,T cruzi repl,Vif A3G,Ecoli rRNA inh RFP,Calb FLC,Ecoli rRNA inh,AF4-AF9 inh
CC(=O)N1CCN(CCN=CC2=C(O)CC(c3ccc(Cl)cc3)CC2=O)CC1 (stereo unspecified),-3,-0.3,.,1.8,3,1%,.,3,.,.
Cc1ccc(C2C3=C(CC(C)(C)CC3=O)Nc3onc(C)c32)cc1 (stereo unspecified),-11,-3.5,.,-0.4,6,-1%,.,-11,.,.
